# Source: PubChem
# PrP 5UTR inh = inhibition of PrP 5' UTR reporter expression; AID 488862; cell-based PrP 5' UTR mRNA reporter, plate reader; inhibition, % (concentration not given with the values); 0.35% of 340,000 active;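 active = every replicate at 50% or more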;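 note: 0 = median of the neutral control wells; tested in H4 reporter cells; numbers are from one replicate; inactives centre near -14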
# ugtP null kill = kills S. aureus RN4220 lacking UgtP | growth inhibition, % (test concentration not listed) | S. aureus RN4220 ugtP deletion, OD600 growth, 16 h; some inactives read as strong as hits | 0.54% of 330,000 active | AID 1259309;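 active = z-score under -3 and OD600 up to 0.15 on both plates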;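 note: plate controls were untreated wells for no effect and antibiotic for full effect; wells of about 80 µL received 100 nL stock; the first replicate is given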
# Sa RN4220 lethal = kills Staphylococcus aureus RN4220; S. aureus RN4220 growth, OD600, 16 h; inhibition, % (test concentration not listed); 0.33% of 330,000 active; AID 1259311;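 active = z-score of -3 or lower and OD600 up to 0.18 on both plates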;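 note: plate controls were untreated cells for no effect and reference antibiotic for full effect; stock transfer was 100 nL into about 80 µL; one replicate is shown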
# Bead autofluor = counter-screen for toxin protease inhibitors: compound fluorescence | compound autofluorescence counterscreen, microsphere flow cytometry; active compounds read high | fluorescence intensity (test concentration not listed) | 3.1% of 360,000 active | AID 624483;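 active = at least 3 SD above the mean of all compounds, about 16000 in these data; inconclusive = too few beads counted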;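 note: 100 nL of 1 mM stock went into each well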
# BJeLR lethal = BJeLR cell viability loss; BJeLR (HRASV12) viability, CellTiter-Glo ATP luminescence, 48 h; reference of the scale not given here; inhibition, % (no concentration beside the values); 0.17% of 300,000 active; AID 1554;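 active = replicate mean above 50%; inconclusive = above 50% but judged a plate artefact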;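 note: 50 nL library stock added to about 25 µL; numbers are from one replicate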
# Mtb hypoxia rep = Mtb hypoxia fluorescent reporter inhibition; fluorescence inhibition, % (no concentration beside the values); AID 1159583; M. tuberculosis hypoxia-regulated fluorescent reporter, fluorescence; 0.1% of 300,000 active;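 active = 35 to 45% if threefold the growth effect, above 45% if 1.5-fold the growth effect; inactive = the rest, general growth blockers included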;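 note: wells of about 50 µL received 100 nL stock; 0% = vehicle wells and 100% = reference inhibitor wells; whole bacteria with a GFP reporter of the hypoxia response; strong numbers were not always called active; many hits fall short of the cut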
# Mtb hypoxia rep growth = also measured in Mtb hypoxia rep; calls as there; growth inhibition, %; measured here: M. tuberculosis growth (absorbance);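 0% = vehicle and 100% = reference antibiotic; read after six days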
# * hit, by the source's call; ? = inconclusive; . = not tested or not shown.
SMILES,PrP 5UTR inh,ugtP null kill,Sa RN4220 lethal,Bead autofluor,BJeLR lethal,Mtb hypoxia rep,Mtb hypoxia rep growth
C/C(=N\OC(=O)c1c(-c2ccccc2Cl)noc1C)c1ccncc1,18,.,.,4238,-2,.,.
CC1(C)CC(=O)C=C(NCCN2CCN(C(=S)NC3CCCCC3)CC2)C1,2,10,2.0,.,-3,7,3
CCCCCn1nc(C)c2c(C)cc(=O)[nH]c21,-17,6,9.4,4598,0,.,.
CC(NC(=O)CCC(=O)NCc1ccc(F)cc1)c1ccccc1 (stereo not drawn),-23,5,1.6,4031,-8,17,7
Cn1cc(C(=O)C(=O)N2CCc3ccccc32)c2ccccc21,-6,0,-1.5,5230,3,3,-2
O=C(O)CSc1nnc(CNc2ccccc2Cl)n1-c1ccccc1,-16,-5,2.7,6478,-4,10,8
Cc1c(C)c2c(OCC(=O)N[C@@H](CC(C)C)C(=O)O)cc3c(c2oc1=O)CCC(C)(C)O3,1,1,5.7,3955,4,-5,2
CCOC(=O)Cn1cnc2c(nnn2-c2ccc(OC)cc2)c1=O,-19,-3,8.3,10803,6,7,5
O=C(COC(=O)c1ccccn1)NNC(=O)c1ccc([N+](=O)[O-])cc1,-2,8,3.6,4105,-1,4,0
O=C(Nc1nncs1)C12CC3CC(CC(Cl)(C3)C1)C2,-17,3,6.4,3970,7,21,14
COCCn1c(SCC(=O)NCCc2ccccc2)nc2c([nH]c3ccccc32)c1=O,-3,-3,3.5,6076,-14,10,-8
CC1CCN(Cc2c(C(=O)N/N=C/c3cccc(C(F)(F)F)c3)nnn2-c2nonc2N)CC1,-12,.,.,5273,2,.,.
CC1CN(C(=O)COC(=O)c2ccc(S(=O)(=O)N(C)C)cc2)CC(C)O1 (stereo not drawn),-28,7,5.6,4056,-5,1,1
COc1ccc(/C=N/Nc2nc3ccccc3[nH]2)c(OC)c1OC,8,.,.,4131,-9,.,.
CN(C)c1ccc(C(C(=O)NC2CCCCC2)N(Cc2ccco2)C(=O)c2snc(C(N)=O)c2N)cc1 (stereo not drawn),-21,6,4.9,5903,16,-5,-2
CCCCOc1ccc(C(=O)NCC(=O)NNC(=O)c2ccco2)cc1,-20,9,3.7,3873,.,9,13
COc1ccc(C/C(C)=N/NC(=O)c2cc(C)oc2C)cc1,-16,.,.,1991,3,.,.
Cc1ccc(C)c(N(C(=O)CNC(=O)c2ccco2)C(C(=O)NCC2CCCO2)c2ccccc2)c1 (stereo not drawn),-1,0,0.8,4849,5,8,-4
O=C(CN1CCN(Cc2ccc3c(c2)OCO3)CC1)N1CCc2[nH]c3ccc(F)cc3c2C1,-17,-15,-12,3287,1,.,.
CC(C)CN1CCN(Cc2cccn2-c2ccccn2)CC1CCO (stereo not drawn),-17,-5,4.6,5163,-8,6,-4
O=C(NCCN1C(=O)S/C(=C\c2ccccc2F)C1=O)C1=COCCO1,-15,0,2.3,.,24,8,12
Cc1ccc(S(=O)(=O)N2CCN(c3ncccn3)CC2)c(C)c1,-16,2,2.2,3905,-2,5,0
CCOC(=O)c1ccc(NC(=S)NCCCN2CCN(C3CCCCC3)CC2)cc1,-12,3,2.2,5402,-4,2,8
O=C(Nc1ccc2c(c1)OCO2)c1ccc(S(=O)(=O)N2CCCC2)cc1,-42,7,3.9,3993,-3,5,8
CC(=O)Nc1ccc(NC(=O)CSC2=NS(=O)(=O)c3cc(F)ccc3N2)cc1,-15,14,-0.8,5656,-7,12,7
Cc1ccc(Nc2nnc(C)c3ccccc23)c(C)c1,3,4,2.0,6590,4,2,0
CCOC(=O)/C=C1\SCC(=O)N1CC(=O)NC(C)c1ccccc1 (stereo not drawn),-14,-1,6.3,10788,-7,-6,4
Cc1cc(S(=O)(=O)NCc2ccncc2)c(C)cc1Br,-27,6,4.7,3948,3,7,0
Cc1nnsc1SCCNC(=O)c1c(F)cccc1F,-23,-1,-0.6,2526,2,.,.
CCN(CC(=O)Nc1ccccc1OC)C(=O)C1CC2C=CC1C2 (stereo not drawn),-5,14,8.8,?,6,1,5
CC(=O)c1ccc(N2CCN(C(=O)CCC(=O)Nc3ccc4nc(N5CCN(C)CC5)cc(C)c4c3)CC2)cc1,-8,9,9.7,5395,-1,0,8
O=C1OCCC1Sc1nc2ccccc2n1-c1ccccc1 (stereo not drawn),-10,4,1.6,4352,-10,.,.
Cc1c(CC(=O)NCCCCCC(=O)O)c(=O)oc2cc3occ(-c4ccccc4)c3cc12,-28,11,5.5,4133,2,0,-2
CCCCc1ccc(NC(=O)CN(C)CC(=O)Nc2ccccc2Cl)cc1,-13,-21,-3.8,3575,-7,1,-1
Cc1ccc(Nc2nc(N3CCOCC3)nc(N3CCOCC3)n2)cc1,6,1,8.4,8067,-4,11,5
Cc1ccc(C2N(c3cccc(Cl)c3)C(=O)C3CCCN32)o1 (stereo not drawn),-50,6,5.9,5418,21,14,6
CSc1cccc(NC(=O)C2CCCN(c3ncnc4c3nc3n4CCCCC3)C2)c1 (stereo not drawn),-13,-14,1.2,5929,-3,9,5
O=C(N/N=C/c1ccco1)c1cc(-c2cccs2)[nH]n1,-41,.,.,2074,-1,.,.
O=C(Nc1nc(N2C(=O)c3ccccc3C2=O)n(-c2ccccc2)n1)c1ccc(Cl)cc1,-19,-5,3.4,3887,4,0,8
Cc1ncc([N+](=O)[O-])n1CC(=O)NC(C)(C)C,-9,3,1.3,1948,-15,0,2
COc1ccc(/C=N/NC(=O)CNC(=O)c2ccc3c(c2)OCCO3)c(C(=O)O)c1OC,-16,.,.,6388,9,.,.
Cc1ccc(N2C(=O)NC(NC(=O)C(C)(C)C)(C(F)(F)F)C2=O)cc1C (stereo not drawn),-21,1,2.9,2036,0,15,12
O=C1NC(=O)N(c2ccccc2)C(=O)/C1=C/c1coc2ccc(O)cc2c1=O,-4,13,6.7,4471,11,13,8
CC(C)(C)OC(=O)N1CCCC1C(=O)N1CCc2ccccc21 (stereo not drawn),-15,-6,-0.7,16582*,-2,-6,-2
CCc1ccccc1N(C(=O)c1snc(C(N)=O)c1N)C(C(=O)NCC1CCCO1)c1ccc(OC)c(OC)c1 (stereo not drawn),2,2,1.1,3668,-13,0,2
O=C(COC(=O)c1cccnc1)Nc1ccccc1,-31,1,-3.0,3161,3,.,.
COc1ccc(C(=O)NCC(c2cccs2)N2CCc3ccccc32)c(OC)c1 (stereo not drawn),-18,5,3.9,4160,-4,6,-2
COc1ccc(-c2nn(-c3ccccc3)cc2CO)cc1OC,-20,-1,3.1,3761,1,17,7
Fc1ccc(-c2[nH]ncc2-c2nnnn2-c2ccccc2)c(F)c1,-2,-2,6.6,7186,-3,7,-1
Nc1nonc1NN=Cc1ccccc1,.,-3,2.5,.,.,0,-5

# Compounds shown so far with a thiophene ring, fused or not (two):
SMILES,PrP 5UTR inh,ugtP null kill,Sa RN4220 lethal,Bead autofluor,BJeLR lethal,Mtb hypoxia rep,Mtb hypoxia rep growth
O=C(N/N=C/c1ccco1)c1cc(-c2cccs2)[nH]n1,-41,.,.,2074,-1,.,.
COc1ccc(C(=O)NCC(c2cccs2)N2CCc3ccccc32)c(OC)c1 (stereo not drawn),-18,5,3.9,4160,-4,6,-2

# Single entries from the entries so far.
# Mtb hypoxia rep with Cc1c(CC(=O)NCCCCCC(=O)O)c(=O)oc2cc3occ(-c4ccccc4)c3cc12 stands at 0
# Mtb hypoxia rep with CCCCOc1ccc(C(=O)NCC(=O)NNC(=O)c2ccco2)cc1 stands at 9

# The listing continues.
SMILES,PrP 5UTR inh,ugtP null kill,Sa RN4220 lethal,Bead autofluor,BJeLR lethal,Mtb hypoxia rep,Mtb hypoxia rep growth
CCOC(=O)N1CCN(C(=O)c2ccc3c(=O)n(Cc4ccccc4)c(=S)[nH]c3c2)CC1,-13,8,-2.8,2883,6,.,.
Cc1cc(/C=C2\SC(=S)N(Cc3ccco3)C2=O)c(C)n1-c1cccnc1,-61,.,.,13069,3,.,.
CCc1c(C)nc2c(C#N)c(C)[nH]n2c1=O,-8,-2,3.4,2379,2,.,.
CCC(CC)C1=NN2C(=N)/C(=C\c3cc(C)n(-c4cccc(C)c4)c3C)C(=O)N=C2S1,-15,.,.,2614,-8,.,.
Cc1nn(-c2ccccc2)c2nc(C(F)F)cc(C(F)F)c12,-1,40,4.9,6628,.,5,-5
Cc1sc2ncn(CC(=O)N3CCCC(C)C3)c(=O)c2c1S(=O)(=O)N1CCCCC1 (stereo not drawn),-33,5,0.4,3743,4,0,-8
CC(C)C(=O)Nc1cccc(C(=O)Nc2ccc(S(=O)(=O)Nc3nccs3)cc2)c1,-18,6,-1.1,5735,2,.,.
C#CCNC(=O)C(C)c1ncc(C(F)(F)F)cc1Cl (stereo not drawn),-13,3,1.5,3902,10,4,-4
Cc1c(N2C(=O)c3cccc4cccc(c34)C2=O)cnn1C,-9,6,2.8,4424,1,-7,-4
O=C(O)c1c(C(=O)O)c(-c2ccc(F)cc2)n2c1CCC2,-35,.,.,4133,-13,.,.

# A draw from above in order of number of heavy atoms, rising.
SMILES,PrP 5UTR inh,ugtP null kill,Sa RN4220 lethal,Bead autofluor,BJeLR lethal,Mtb hypoxia rep,Mtb hypoxia rep growth
Cc1nn(-c2ccccc2)c2nc(C(F)F)cc(C(F)F)c12,-1,40,4.9,6628,.,5,-5
Cc1sc2ncn(CC(=O)N3CCCC(C)C3)c(=O)c2c1S(=O)(=O)N1CCCCC1 (stereo not drawn),-33,5,0.4,3743,4,0,-8
CCOC(=O)N1CCN(C(=O)c2ccc3c(=O)n(Cc4ccccc4)c(=S)[nH]c3c2)CC1,-13,8,-2.8,2883,6,.,.

# Whole records, quoted from the list:
# Cc1nn(-c2ccccc2)c2nc(C(F)F)cc(C(F)F)c12 is entered as PrP 5UTR inh = -1; ugtP null kill = 40; Sa RN4220 lethal = 4.9; Bead autofluor = 6628; BJeLR lethal = .; Mtb hypoxia rep = 5; Mtb hypoxia rep growth = -5
# CCc1c(C)nc2c(C#N)c(C)[nH]n2c1=O is entered as PrP 5UTR inh = -8; ugtP null kill = -2; Sa RN4220 lethal = 3.4; Bead autofluor = 2379; BJeLR lethal = 2; Mtb hypoxia rep = .; Mtb hypoxia rep growth = .

# Next part.
SMILES,PrP 5UTR inh,ugtP null kill,Sa RN4220 lethal,Bead autofluor,BJeLR lethal,Mtb hypoxia rep,Mtb hypoxia rep growth
CN(C)/C=N/c1c(C#N)cnn1-c1ccccc1,-12,.,.,10399,6,.,.
Cn1ncc(Br)c1C(=O)N1CCCC1,-15,.,.,4131,-2,.,.
Cc1cc2nc(-c3cccc(NC(=O)c4ccc(Br)o4)c3C)oc2cc1C,-12,7,5.5,7332,-1,-14,0
COc1ccc(CCNC(=O)/C(C#N)=C/c2ccc(OCC(=O)NCC3CCCO3)cc2)cc1OC (stereo not drawn),-27,0,1.6,7185,2,4,-1
COC(=O)c1ccccc1S(=O)(=O)N1CCC(C(=O)Nc2ccccc2N2CCOCC2)CC1,-17,5,-0.1,3490,.,11,9
COc1ccc2cc(C(C)c3nc4ccccc4c(=O)n3N)ccc2c1 (stereo not drawn),-6,5,-13,6825,0,2,0
CCc1c(C)nc2ncnn2c1N1CCC(C(=O)N2CCN(c3ccc(F)cc3)CC2)CC1,-48,-16,3.3,24650*,-5,0,4
